Screening results (PubChem)
Rango-impB inh = Rango-importin beta binding inhibition; Rango CFP/YFP FRET sensor + importin beta, 45 min; Potency, µM (titrated, usually from 92.2 µM), without a hit: top-dose inhibition of complex formation; 340,000 compounds, 0.031% hits; AID 540263; active = rising FRET ratio curve, often small or poorly fitted; inconclusive = mostly compound fluorescence or quenching in the first reads; inactive = flat curves in all reads;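 further: potency means the concentration at half of the fitted maximal effect; 0% = DMSO wells and 100% = buffer wells lacking importin beta; nearly all actives have a fitted effect of over 15% in size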
Target sequence (Q14974 whole entry, looked up): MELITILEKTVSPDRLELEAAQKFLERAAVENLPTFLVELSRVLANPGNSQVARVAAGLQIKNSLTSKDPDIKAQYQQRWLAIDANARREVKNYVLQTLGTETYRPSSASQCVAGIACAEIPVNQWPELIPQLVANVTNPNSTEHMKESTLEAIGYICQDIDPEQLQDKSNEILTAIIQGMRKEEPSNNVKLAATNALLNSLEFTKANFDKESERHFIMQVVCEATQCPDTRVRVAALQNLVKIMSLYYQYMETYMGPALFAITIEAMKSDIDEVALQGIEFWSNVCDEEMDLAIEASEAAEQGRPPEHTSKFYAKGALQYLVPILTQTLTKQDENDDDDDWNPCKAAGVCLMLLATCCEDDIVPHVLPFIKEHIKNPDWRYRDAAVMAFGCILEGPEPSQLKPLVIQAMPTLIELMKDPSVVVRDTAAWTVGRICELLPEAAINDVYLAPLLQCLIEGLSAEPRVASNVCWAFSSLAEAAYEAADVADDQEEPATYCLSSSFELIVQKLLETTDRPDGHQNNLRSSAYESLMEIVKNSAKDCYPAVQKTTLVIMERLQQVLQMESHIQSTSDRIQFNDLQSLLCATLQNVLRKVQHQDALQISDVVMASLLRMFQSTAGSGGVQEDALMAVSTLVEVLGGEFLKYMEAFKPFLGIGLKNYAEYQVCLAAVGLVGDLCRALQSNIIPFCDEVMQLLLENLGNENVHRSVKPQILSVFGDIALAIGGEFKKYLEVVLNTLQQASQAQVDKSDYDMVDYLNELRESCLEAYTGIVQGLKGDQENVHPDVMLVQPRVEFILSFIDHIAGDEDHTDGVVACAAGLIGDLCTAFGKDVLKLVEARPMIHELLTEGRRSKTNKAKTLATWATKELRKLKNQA
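FRET biosensor Rango (snurportin 1 IBB between N-terminal EYFP and C-terminal Cerulean), 50 nM in PBS/1 mM DTT/0.02% Tween-20/0.1% BSA, preincubated 5 min RT with compound; 0.125 microM importin beta added, 45 min RT, CFP/YFP FRET ratio read.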
GLA inh pH 4.5 = alpha-galactosidase A (human) inhibition, pH 4.5; P06280; purified enzyme, 4-MU-alpha-Gal fluorescence, pH 4.5; activity change, negative = inhibition, % at 105 µM; 230,000 tested, under 10 active; AID 1467; inconclusive = small, poorly fitted or top-dose-only inhibition, or a rising curve; inactive = flat fitted curve, though single readings scatter; no compound was filed as active;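 further: 0% = full activity with enzyme and -100% = basal without enzyme; dose as in the result columns while the protocol names 77 µM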
miR-21 FLuc = miR-21 reporter, rising signal; HeLa miR-21 FLuc reporter, luciferase, 48 h; Potency, µM (doses to about 38.3 µM), for inactives: at the highest dose reporter change, positive = more light; 340,000 tested, under 10 active; active = well fitted rising curve with a large enough effect; inconclusive = small, poorly fitted or top-dose-only effect; inactive = no such curve, though single readings can be large or run the other way;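 further: % of control where 0% means no effect; miR-21 action dims this reporter so a rising signal means less miR-21 action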
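Compounds were titrated across several concentrations (up to approximately 40 uM) and incubated 48 hours with HeLa miR-21-FLuc reporter cells (miR-21 target sequence downstream of FLuc, endogenous miR-21). Readout was firefly luciferase luminescence after lytic detection reagent.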
Rango release inh = prevents RanGTP from dissociating the Rango-importin beta complex | O95149+P62826 | Biochemical FRET Rango-importin beta, RanGTP-induced dissociation | Potency, µM (doses to about 46.1 µM), for inactives: at the highest dose activity change, negative = inhibition | 340,000 compounds, 0.071% hits; active means falling FRET ratio curve, often poorly fitted, with flat reads before Ran was added; inconclusive means other falling curves, or compound fluorescence or quenching; inactive means flat or rising ratio curve;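 further: potency means the concentration at half of the fitted maximal effect; % of control where 0% means no effect; nearly all actives have a fitted effect of over 45% in size; -100% = wells without RanGTP and RCC1; the record marks most hits as doubtful in a second field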
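Rango (0.1 uM)–importin beta (0.25 uM) complex; RanGTP-RCC1 trigger; 45 min RT; CFP/YFP FRET read.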
Active calls of the source: *; ? = inconclusive; · = no result given. The list is partial, so the mix of outcomes need not match the whole.

structure	Rango-impB inh	GLA inh pH 4.5	miR-21 FLuc	Rango release inh
CCN1C(=O)C(CC(=O)Nc2ccc(OC)cc2)N(CCc2ccc(F)cc2)C1=S (stereo not drawn)	-0.2%	4	?	10%
CCN(CC)CCCNC(=S)N1CCC(c2nc3ccccc3[nH]2)CC1	-0.6%	·	0%	5%
CN(C)S(=O)(=O)c1ccc(Cl)c(C(=O)OCC(=O)c2ccco2)c1	-4.0%	·	·	-1%
CC(=O)c1cccc(NC(=O)C2C3C=CC(C3)C2C(=O)O)c1 (stereo not drawn)	-1.5%	3	-2%	-8%
Cc1ccc(C(=O)c2cc3ccccc3o2)cc1	-3.3%	12	-48%	2%
Cc1ccc2oc(=O)cc(CN3CCOCC3)c2c1	0.0%	1	-10%	-6%
O=C(CN(C(=O)CSc1nnc(COc2ccccc2)o1)c1ccc(F)cc1)NC1CCCC1	-4.0%	2	-5%	6%
CCOc1ccc(N(CC(=O)NCCc2ccc(Cl)cc2)S(=O)(=O)c2c(C)[nH]c(=O)[nH]c2=O)cc1	0.7%	-3	0%	-2%
O=C(Nc1cccc(Cl)c1)c1nc[nH]c1C(=O)NCCN(CCNC(=O)c1[nH]cnc1C(=O)Nc1cccc(Cl)c1)CCNC(=O)c1[nH]cnc1C(=O)Nc1cccc(Cl)c1	-1.2%	·	·	12%
O=C(c1ccco1)N1CCCN(Cc2nc(-c3ccc4c(c3)OCO4)no2)CC1	0.7%	·	-7%	17%
COc1ccc(CCN(Cc2ccccn2)C(=S)Nc2ccccc2C)cc1OC	0.5%	-12	-4%	-9%
O=c1o[nH]c(-c2ccccc2)c1N=Nc1c(F)cccc1Cl	-0.8%	·	2%	-7%
CC(=O)N1CCN(c2ccc(Oc3ncnc4sccc34)cc2)CC1	-1.2%	4	14%	-7%
CN1CCN(c2nc3ccccn3c(=O)c2/C=C(\C#N)S(=O)(=O)c2ccc(Cl)cc2)CC1	?	-12	-3%	?
Cc1ccc(C(=O)NCC(=O)NCC(=O)OCC(=O)c2ccc(Br)cc2)cc1	5.2%	-3	0%	3%

New compounds follow
structure	Rango-impB inh	GLA inh pH 4.5	miR-21 FLuc	Rango release inh
COc1cc(/C=N/NC(=O)c2ccncc2)ccc1OC(=O)c1ccco1	3.5%	·	3%	-4%
CC1CN(Cc2cc(=O)[nH]c(C(C)C)n2)CC(C)O1 (stereo not drawn)	-2.2%	-18	-4%	1%
CC1=NCCN1S(=O)(=O)c1cc(Cl)ccc1Cl	5.0%	4	0%	0%
CCOCc1cnc(C)nc1NCC(=O)c1c(C)[nH]c2ccc(OC)cc12	-6.5%	1	5%	-13%
COc1ccc(S(=O)(=O)N2CCCCC2)cc1NC(=O)c1ccc(Cl)nc1	-1.0%	·	·	1%
CC(=O)c1cccc(NC(=S)NNC(=O)c2ccco2)c1	3.0%	7	-20%	10%
O=C(NCc1ccncc1)C(=O)NCC(c1ccco1)N1CCN(c2ccc(F)cc2)CC1 (stereo not drawn)	0.4%	5	-8%	0%
C=CCn1c(C(O)c2ccccc2)nc2ccccc21 (stereo not drawn)	1.2%	·	-10%	4%
CC(C)(C)C(=O)N1CCN(c2ccc([N+](=O)[O-])c(NCC3CCCO3)c2)CC1 (stereo not drawn)	?	-6	-9%	1%
CCOC(=O)CC(=O)CSc1ncnc2c1cnn2-c1ccccc1	?	-6	-37%	-12%
COc1cc2cc(NC(C)=O)cc(NCc3ccccc3)c2cc1OC	-2.1%	·	4%	-12%
CC(C)c1cc(C(=O)N/N=C/c2cccnc2)n[nH]1	-0.3%	-7	-9%	0%
CSc1ccccc1C(=O)N1CCC(n2nccc2NC(=O)C(C)(C)C)CC1	-1.9%	·	-2%	0%
O=C(NC(=S)Nc1cccc2c(O)cccc12)c1cccc(Br)c1	3.1%	-5	-2%	13%
CCOCCCNC(=O)CN1C(=O)c2cccc3cccc1c23	0.1%	·	0%	39%

Next section:
structure	Rango-impB inh	GLA inh pH 4.5	miR-21 FLuc	Rango release inh
Cc1ccc(-c2cc(C(F)(F)F)n3nc(C(=O)N4CCN5CCCC5C4)cc3n2)cc1 (stereo not drawn)	4.8%	·	8%	-5%
O=C(O)CC(CC(=O)Nc1ccc(F)c(Cl)c1)c1ccc(Cl)cc1Cl (stereo not drawn)	2.0%	-4	-9%	-20%
CCC1CCCCN1CCCNC(=O)CSc1nc2nc(C)c(Cc3ccc(C)cc3)c(C)n2n1 (stereo not drawn)	0.4%	·	5%	8%
CC(=O)c1ccc(S(=O)(=O)Nc2c(C)nn(C)c2C)cc1	-4.1%	·	·	-10%
Cc1coc2cc3oc(=O)c(CCC(=O)NCCCN4CCOCC4)c(C)c3cc12	-1.1%	·	0%	3%
CCn1cc(/C=C(\NC(=O)c2ccccc2F)C(=O)NCCCn2ccnc2)c2ccccc21	-2.7%	·	-1%	0%
Cc1ccc(OCCCCNC2CCCC(C)C2C)c(C)c1 (stereo not drawn)	2.6%	?	23%	0%
O=C(/C=C/c1ccccc1[N+](=O)[O-])NCCc1ccc(F)cc1	-0.4%	-5	-26%	-20%
COCCn1c(N2CCCC2)nc2c1c(=O)[nH]c(=O)n2C	1.3%	·	0%	-10%
COc1ccccc1N1CCN(C2CCN(C(=O)COc3cccc(C)c3)CC2)CC1	2.7%	-4	-1%	6%
CCOc1ccc2ccccc2c1/C=N/NC(=O)c1ccncc1	-0.7%	·	-5%	-8%
N/C(=N\N=C\c1ccnc2ccccc12)SC1CC(=O)N(c2ccc(Br)cc2)C1=O (stereo not drawn)	3.0%	-6	-12%	?
Cc1cccc(NC(=O)COc2coc(CN3CCN(c4ccccc4)CC3)cc2=O)c1	-0.4%	·	·	-12%
N#Cc1cc(C#N)c(N2CCN(c3cccc(Cl)n3)CC2)nc1N	?	-1	-41%	-28%
COc1ccc(C2=NN(CN3C(=O)C(=O)c4ccccc43)C(c3ccc(OC)cc3)C2)cc1 (stereo not drawn)	-0.8%	2	-54%	1%

Next section.
structure	Rango-impB inh	GLA inh pH 4.5	miR-21 FLuc	Rango release inh
COCCN(CCOC)S(=O)(=O)c1ccc(C(=O)Nc2nc3c(s2)CCc2ccccc2-3)cc1	?	0	-1%	-16%
CN(CC12CC3CC(CC(C3)C1)C2)C(=O)c1ccco1	-1.4%	·	·	-16%
C[C@H](N)C(=O)NC[C@H]1O[C@@H](n2cnc3c(N)ncnc32)[C@H](O)[C@@H]1O	-0.5%	·	·	-1%
Cc1ccc(NC(=O)NC(=O)c2cnccc2C(F)(F)F)c(C)c1	0.4%	3	-13%	9%
CCOCCOC(=O)COc1ccc2c(=O)c(Oc3ccc(OC)cc3)coc2c1	1.2%	·	-8%	-8%
CCCc1nc(SCC(=O)N2CCc3ccccc3C2)c2ccccc2n1	-3.5%	0	6%	-1%
CCOC(=O)C1=NNC(C(=O)c2ccccc2)C1c1ccc(OC)cc1 (stereo not drawn)	-0.8%	·	·	-3%
CCn1c(CNC(=O)COc2ccc(C(C)C)cc2)nnc1SCC(=O)Nc1ccc(F)cc1	6.2%	2	14%	-11%
COc1cccc(CC(=O)Nc2cc(S(=O)(=O)N3CCOCC3)ccc2N2CCN(C)CC2)c1	2.4%	·	·	6%
NC(CSCc1ccccc1Cl)C(=O)O (stereo not drawn)	4.3%	-11	-2%	17%
O=C(Cc1nc2ccccc2[nH]c1=O)c1ccc(Cl)cc1	?	-4	-49%	?
N#CC1=C2Sc3ccccc3N2CCCC1=O	2.7%	-3	-28%	-3%
COc1cc(C(=O)N2CCCCC2)ccc1OCC(=O)Nc1ccc(F)cc1	-2.5%	·	·	-16%
Cc1ccc(NC(=O)c2cc3cc(OC(F)(F)F)ccc3[nH]2)cc1	5.9%	-3	-9%	2%
CCOc1ccc(OCC)c(S(=O)(=O)N2CCOCC2)c1	-1.2%	6	5%	-6%

Other entries follow.
structure	Rango-impB inh	GLA inh pH 4.5	miR-21 FLuc	Rango release inh
CCCn1c(-c2ccc[nH]c2=O)nc2ccccc21	-0.6%	1	0%	1%
Cc1ccccc1NC(=O)CSc1nc2cc3c(cc2cc1C)CCC3	2.9%	8	11%	7%
Cc1noc(/C=C/c2ccco2)c1S(=O)(=O)N1CCC(C(=O)N2CCc3ccccc32)CC1	1.2%	-9	-2%	-12%
CC(C(=O)NCC(=O)Nc1ccc(F)c(F)c1F)N1CCN(c2ccc(O)cc2)CC1 (stereo not drawn)	0.6%	·	·	-10%
Cc1ccc(SCCC(=O)N2CCOCC2)cc1	0.6%	-12	-46%	1%
COc1ccccc1NC(=O)c1nnn(Cc2ccccc2)c1NC(C)=O	-0.4%	4	-6%	-4%
CC(Sc1nc2sc3c(c2c(=O)n1-c1ccccc1)CCCC3)C(=O)O (stereo not drawn)	-4.8%	-5	-1%	1%
N#Cc1cccc(C(=O)OCC(=O)c2ccc3c(c2)NC(=O)CO3)c1	4.7%	·	·	11%
Cc1cc(C)n(C(C)CNS(=O)(=O)c2ccc(C)c(C)c2)n1 (stereo not drawn)	1.8%	·	1%	12%
Cc1ccc(CN=C(Nc2ccccc2)NC2CCCCC2)cc1	-1.4%	0	4%	9%
O=C(c1ccco1)N1CCN(C(=S)Nc2ccc(Br)cc2Cl)CC1	-3.3%	·	0%	23%
CN1CCN(CCCNC(=O)c2ccc3c(c2)N(Cc2ccc(F)cc2)CCS3)CC1	-3.3%	·	0%	-5%
O=C1CN(c2nc(-c3cccnc3)nc3sc4c(c23)CCCC4)CCN1	0.1%	-3	-41%	1%
O=C(CSc1cc(Cl)ccc1Cl)NC1CCCc2ccccc21 (stereo not drawn)	-3.7%	0	-1%	-6%
CN(C(=O)c1ccc(NC(=O)C2CCN(C(=O)OC(C)(C)C)CC2)cc1)C1CCC1	-1.0%	·	·	6%

Grouped by structure, the compounds so far containing a thiophene ring, fused or not.
structure	Rango-impB inh	GLA inh pH 4.5	miR-21 FLuc	Rango release inh
CC(=O)N1CCN(c2ccc(Oc3ncnc4sccc34)cc2)CC1	-1.2%	4	14%	-7%
CC(Sc1nc2sc3c(c2c(=O)n1-c1ccccc1)CCCC3)C(=O)O (stereo not drawn)	-4.8%	-5	-1%	1%
O=C1CN(c2nc(-c3cccnc3)nc3sc4c(c23)CCCC4)CCN1	0.1%	-3	-41%	1%

Carrying on:
structure	Rango-impB inh	GLA inh pH 4.5	miR-21 FLuc	Rango release inh
O=C(NC1CCCc2c1cnn2-c1ccc(F)cc1F)c1csnn1 (stereo not drawn)	0.6%	·	-5%	8%
Cc1ccc(C)c(N2CCN(C(=O)CCn3c(=S)[nH]c4cc5c(cc4c3=O)OCO5)CC2)c1	0.9%	8	-3%	2%
Cc1cccc(C(=O)N[C@H](C(=O)Nc2ccc(C)c(S(=O)(=O)N(C)C)c2)C(C)C)c1	-0.2%	-13	-3%	7%
c1csc(-c2cn3ccc4ccccc4c3n2)c1	0.3%	-5	10%	14%
CC(=O)Nc1sc(N/N=C\c2ccccc2F)nc1-c1cccs1	-3.5%	1	-43%	-15%
O=C(COC(=O)Cc1c[nH]c2ccccc12)Nc1cccc2ccccc12	-4.7%	-1	-6%	-1%
O=C(O)Cc1nc(-c2cccnc2)sc1-c1ccc(Br)cc1	-0.9%	-7	-11%	19%
O=C(CCc1ccccc1O)N/N=C/c1ccc(Sc2cccc3cccnc23)o1	0.7%	-11	-1%	0%
CC1CCCN(C(=O)C2(NC(=O)Nc3cccc(F)c3)CCCCC2)C1 (stereo not drawn)	-2.1%	-1	-3%	0%
CCn1c2ccccc2c2cc(NC(=O)COC(=O)Cc3cn4ccsc4n3)ccc21	1.0%	-5	-51%	22%

Exported with the structure last: entries from further up
| Rango-impB inh | GLA inh pH 4.5 | miR-21 FLuc | Rango release inh | SMILES |
| --- | --- | --- | --- | --- |
| 0.5% | -12 | -4% | -9% | COc1ccc(CCN(Cc2ccccn2)C(=S)Nc2ccccc2C)cc1OC |
| -0.8% | · | 2% | -7% | O=c1o[nH]c(-c2ccccc2)c1N=Nc1c(F)cccc1Cl |
| -1.2% | 4 | 14% | -7% | CC(=O)N1CCN(c2ccc(Oc3ncnc4sccc34)cc2)CC1 |
| ? | -12 | -3% | ? | CN1CCN(c2nc3ccccn3c(=O)c2/C=C(\C#N)S(=O)(=O)c2ccc(Cl)cc2)CC1 |
